Screening results: PubChem BioAssay, National Center for Advancing Translational Sciences (NCATS)
TRPML1 inh = blocks the human TRPML1 channel | Q9GZU1 | TRPML1-inducible cells, Ca2+ dye fluorescence, FDSS; hits give low values; inhibition of EC80 agonist-evoked calcium signal | activity change, negative = inhibition, % (test concentration not listed) | 390,000 compounds, 0.02% hits | AID 624415; in the data active means activity change below about -50%; inconclusive means about -30% to -50%; inactive means above about -30%;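 further: stimulus is agonist 54-4 at its EC80 concentration; on the % scale 0 is the no-effect control and ±100 the full control effect; compound concentration not given in the record; the text of the record puts the active cut at -80%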
Target sequence (Q9GZU1 whole entry, looked up): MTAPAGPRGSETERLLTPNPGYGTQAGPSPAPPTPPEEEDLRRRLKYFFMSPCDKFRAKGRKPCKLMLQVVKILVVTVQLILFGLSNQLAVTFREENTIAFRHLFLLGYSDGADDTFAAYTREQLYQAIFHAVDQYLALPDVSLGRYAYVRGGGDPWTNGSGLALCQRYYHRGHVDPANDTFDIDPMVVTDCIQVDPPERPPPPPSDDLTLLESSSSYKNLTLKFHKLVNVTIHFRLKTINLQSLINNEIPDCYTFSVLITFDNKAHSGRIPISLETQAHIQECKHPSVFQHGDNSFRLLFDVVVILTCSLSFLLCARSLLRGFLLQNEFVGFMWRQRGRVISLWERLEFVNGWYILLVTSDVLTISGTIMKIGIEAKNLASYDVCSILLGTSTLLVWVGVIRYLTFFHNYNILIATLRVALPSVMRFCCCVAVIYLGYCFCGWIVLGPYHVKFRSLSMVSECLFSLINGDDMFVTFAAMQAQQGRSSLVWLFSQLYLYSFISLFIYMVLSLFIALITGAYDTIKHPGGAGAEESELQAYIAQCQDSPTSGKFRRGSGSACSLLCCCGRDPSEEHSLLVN
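Tet-induced TRPML1-DL cells loaded with Ca8 no-wash calcium dye were read kinetically on FDSS. Compound addition was followed by EC80 agonist 54-4 (4 uM final); inhibition was read over 110 s.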
D2 potentiator = human D2 receptor positive allosteric modulation | P14416 | DiscoveRx D2 beta-arrestin cells, luminescence, 90 min; 100% = 57 uM dopamine signal | potentiation, % (no concentration beside the values) | 360,000 compounds, 0.23% hits; active = potentiation of 50% or more; inconclusive = 30% to 50%; inactive = 30% or less;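 further: compound concentration not given in the record; tested on top of an EC20 dose of dopamine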
Target sequence (P14416 whole entry, looked up): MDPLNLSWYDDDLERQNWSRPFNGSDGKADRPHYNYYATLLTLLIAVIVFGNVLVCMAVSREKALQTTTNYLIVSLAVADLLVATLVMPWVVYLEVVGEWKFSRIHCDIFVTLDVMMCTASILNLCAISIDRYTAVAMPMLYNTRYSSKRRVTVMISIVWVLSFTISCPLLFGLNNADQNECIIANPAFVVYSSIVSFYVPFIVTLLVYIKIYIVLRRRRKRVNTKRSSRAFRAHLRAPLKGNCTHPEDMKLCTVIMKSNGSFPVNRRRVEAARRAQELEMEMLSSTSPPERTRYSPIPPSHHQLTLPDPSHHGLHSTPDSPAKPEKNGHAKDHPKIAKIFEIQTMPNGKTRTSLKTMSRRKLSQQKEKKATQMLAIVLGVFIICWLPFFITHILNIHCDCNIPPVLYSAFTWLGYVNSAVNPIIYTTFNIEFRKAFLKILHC
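D2 cells co-treated with compound plus 50 nM dopamine (EC20) for 90 min at 37 deg C to detect potentiation. Beta-arrestin recruitment was read as enzyme-fragment luminescence after 1 h at ambient temperature. Full response was set by 57 uM dopamine.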
CtBP-E1A inh = blocks the CtBP interaction with E1A. AlphaScreen GST-E1A/His-CtBP binding, 1536-well; hits give low values; control for the full effect not named in the record. activity change, % (test concentration not listed). 340,000 compounds, 0.49% hits. AID 651724; in the data active means activity change below about -65%; inconclusive means about -30% to -65%; inactive means above about -30%; further: on the % scale 0 is the no-effect control and ±100 the full control effect
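Homogeneous bead-based format: GST-tagged E1A captured on glutathione donor beads, His-tagged CtBP on nickel acceptor beads; compounds precede bead addition by 2 h at 37 °C.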
Six1-Eya2 inh = inhibitors of human Six1/Eya2 interaction | activity change, % (no concentration beside the values) | AlphaScreen GST-Six1/His-Eya2 binding, biochemical; hits give low values; control for the full effect not named in the record | 360,000 compounds, 0.56% hits; in the data active = activity change below about -65%; inconclusive = about -30% to -65%; inactive = above about -30%; further: on the % scale 0 is the no-effect control and ±100 the full control effect
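AlphaScreen with GST-Six1 and His-Eya2 (5X mix: 250 nM and 500 nM), glutathione donor and nickel acceptor beads; buffer 50 mM Tris pH 8.0, 300 mM NaCl, 1 mM TCEP; 1 h at 37 C in the dark.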
TRPML1 ag = human mucolipin-1 channel agonism | TRPML1-expressing cells, Ca2+ dye fluorescence, FDSS; host cell line not named in the record; reference of the full effect not given here | activation, % (no concentration beside the values) | 410,000 compounds, 0.12% hits | AID 624414; in the data active = activation above about 50%; inconclusive = about 30% to 50%; inactive = below about 30%; further: 0% is about no effect; the text of the record puts the active cut at 80%
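TRPML1-DL cells, Tet-induced overnight (~16 h, 37 degrees C), loaded 45-90 min at room temperature with Ca8 no-wash calcium dye plus quencher. FDSS fluorescence: 10 s baseline, compound pin-transfer, 110 s agonist read, then EC80 54-4 (4uM final) and 110 s antagonist read.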
TRPV1 PAM = human TRPV1 potentiation. Q8NER1. TRPV1-expressing cells, Fluo-8 calcium influx, capsaicin EC20 potentiation; host cell line not named in the record; control for the full effect not named in the record. potentiation, % at 8.33 µM. 320,000 compounds, 0.02% hits. AID 540277; active means potentiation above 80%; inconclusive means 30% to 80%; inactive means below 30%; further: 0% is about no effect
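Fluo-8 calcium influx in TRPV1-expressing cells, kinetic read (ex 480/em 520 nm). Compound added and read 3 min for agonist activity, followed by capsaicin at EC20 final and 2 min further read for enhancement.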
Numbers without * were called inactive; ? = inconclusive; · = not tested or not shown; & = joins results of further samples. Rows are unselected. Share with any hit: about 0.95%.

Screens in order – TRPML1 inh	D2 potentiator	CtBP-E1A inh	Six1-Eya2 inh	TRPML1 ag	TRPV1 PAM
1. O=C(O)CCCn1cc(NC(=O)COc2ccc(F)cc2F)cn1
→ 0	-20	2	26	1.0	0
2. Cc1ccc(CNC(=O)CNS(=O)(=O)c2ccc3nc(C)sc3c2)cc1
→ 4	-2	-2	2	-0.2	-4
3. CCOC(=O)Cc1nc2cc(Cl)ccc2o1
→ 4	8	14	6	-0.3	0
4. CC(C)n1cc(C(=O)NC2CC(C)(C)Cc3c2cnn3-c2ccccc2)cn1 (stereo unspecified)
→ 24	-9	1	-3	-1.0	-5
5. CC(=O)Nc1ccc(NC(=O)C(C)OC(=O)C2(c3ccccc3F)CCCC2)cc1 (stereo unspecified)
→ 10	0	6	-2	0.5	-12
6. CC(=O)c1ccc(NC(=O)COC(=O)C2CCN(S(=O)(=O)c3cccs3)CC2)cc1
→ 7	-27	0	0	1.1	?
7. CC(C)(C)c1ccc(-c2nnc(N)o2)cc1
→ 6	-5	-2	-1	-0.2	-5
8. C#CCOCCOCCOCCNc1nc(N2CCN(C(=O)[C@H](CCCN=C(N)N)n3cc(C(N)[C@H](C)CC)nn3)CC2)nc(N2CCN(C(=O)[C@H](CC(N)=O)n3cc(C(N)[C@@H](C)CC)nn3)CC2)n1 (stereo partly specified)
→ -6	-4	13	16	-0.7	·
9. N#Cc1c(-c2cccnc2)c2c([nH]c1=O)-c1ccccc1OC2
→ 17	-15	·	-3	-0.6	-11
10. O=C(NCCCl)Nc1ccccc1OCCOc1ccccc1NC(=O)NCCCl
→ -14	-16	22	-2	-0.8	-8
11. COC(=O)c1ccc(Cc2ccccc2)o1
→ 12	13	-1	15	-1.8	-7
12. COc1ccc2[nH]c(C(=O)O)c(CCC(=O)O)c2c1
→ 0	7	-2	1	0.5	-6
13. COc1cc(C)c(NC(=O)c2cc(C3CC3)nc3c2cnn3C(C)C)cc1OC
→ 36	0	-7	-3	3.3	-18
14. CN(CCc1cnn(C)c1)Cc1cn(C)nc1-c1ccc2c(c1)OCCO2
→ 1	-9	2	-2	-0.2	-3
15. COc1ccc(Cl)cc1NC(=O)CSc1nc(C)cc(C)n1
→ 0	2	·	2	-1.6	5
16. O=C(Cn1c(=O)oc2cc(S(=O)(=O)N3CCCC3)ccc21)N1CCN(c2ccccn2)CC1
→ 18	-9	0	7	-0.3	-17
17. Cc1ccc(-c2cc(C(=O)N3CCOCC3)no2)cc1
→ -6	-10	-8	6	-0.2	-5
18. CCC(C)[C@H]1CN=C(N)N1CCc1cc(C(F)(F)F)cc(C(F)(F)F)c1 (stereo partly specified)
→ -3	-18	·	4	-0.2	-7
19. Cc1noc(C)c1COc1cccc(C(=O)OCC(=O)NCCN2C(=O)CSC2=O)c1
→ 44	-8	31	9	0.5	5
20. CCCOP(=O)(c1ccc(N(C)C)cc1)C(O)c1ccc(Br)cc1 (stereo unspecified)
→ 9	-10	-4	-7	0.2	23
21. CC(=O)Nc1ccc(S(=O)(=O)NC(CC(=O)NCCc2ccccc2)C(C)C)cc1 (stereo unspecified)
→ -19	-1	8	4	0.3	2
22. CSc1ccc(CN(C)CC(=O)NC(C)c2ccccc2)cc1 (stereo unspecified)
→ 12	-28	-2	-10	-0.3	-10
23. O=C(NCc1ccc(Cl)cc1)c1cc(-c2cccs2)on1
→ 24	-11	2	1	-0.6	-10
24. C/C(CC(=O)Nc1ccc(N(C)C)cc1)=N\NC(=O)Cc1csc(N)n1
→ -18	-8	?	-23	1.2	-16
25. Nc1ccn([C@@H]2O[C@H](C(=O)N3CCSC3)[C@@H](O)[C@H]2O)c(=O)n1
→ ·	-1	10	2	-0.2	·
26. Cc1ccc(C)c(S(=O)(=O)N2CCCOC2CNC(=O)C(=O)NCc2ccccn2)c1 (stereo unspecified)
→ -13	-11	9	6	-0.3	5
27. N#Cc1ccccc1S(=O)(=O)N1CCN(c2nc(-c3cccnc3)nc3ccccc23)CC1
→ 15	-3	-2	-9	2.1	2
28. CCn1c(NCc2ccco2)nc2c1c(=O)n(C)c(=O)n2C
→ -5	-5	-2	-7	-1.0	-16
29. CC1(C)CC2(C)Nc3ccccc3N2C(=S)N1 (stereo unspecified)
→ -8	4	6	-1	-0.3	2
30. O=C(/C=C/c1cccc(F)c1)N1CCN(c2ccccn2)CC1
→ -15	-4	5	4	-0.1	1
31. C=C(C)CN(CC)C(=O)CSc1ccc(S(=O)(=O)N2CCN(Cc3ccccc3)CC2)cn1
→ -14	12	-2	-8	0.3	-6
32. COc1cccc(N2CCN(C(=O)C3CCC(=O)N(C4CCCCCC4)C3)CC2)c1 (stereo unspecified)
→ -8	-31	-3	11	-0.2	14
33. C=CCN(C(=O)COc1ccccc1)c1nnc(-c2ccncc2)s1
→ -6	-7	-1	9	0.8	13
34. Cc1cc(NC(=O)COc2cccc(C)c2C)no1
→ 24	-5	-1	-3	-1.0	-6
35. COc1ccccc1NC(=O)COc1ccccc1C(=O)Nc1ccccc1
→ 11	5	0	2	2.1&-0.4	17
36. O=C(COc1ccc(S(=O)(=O)N2CCOCC2)cc1)N1CCOCC1
→ 11	8	2	5	-0.1	-7
37. CCn1c(SCC(=O)Nc2ccc(OC)c(S(=O)(=O)N3CCCCC3)c2)nnc1C1CC1
→ 5	-19	-6	-2	0.3	7
38. CC(=O)c1ccccc1OCC(O)Cn1ccnc1 (stereo unspecified)
→ 2	-3	5	0	2.7	-7
39. Cc1cc(C)c2c(NC(=O)CCl)nn(C)c2n1
→ -7	-15	-11	-9	0.5	11
40. CC(C)CCSc1ncnc2c1oc1nc3c(cc12)COC(C)(C)C3
→ 8	7	7	4	0.5	-4
41. CCCCNC(=O)C1CCC(CNc2c(N3CCC(C)CC3)c(=O)c2=O)CC1 (stereo unspecified)
→ -12	-3	1	0	-0.2	?
42. Cc1noc(C(F)(F)F)c1C(=O)NNC(=O)c1cccc(C(F)(F)F)c1
→ -8	-15	·	3	-0.2	15
43. CC(=O)Cn1cnc2sc(-c3ccccc3)cc2c1=O
→ -2	-6	-2	-1	-0.4	-13
44. CC1(C)CC(NCc2ccncc2)CC(C)(C)N1
→ 12	3	-12	3	-1.0	0
45. Cc1cc(=O)oc2cc(OCC(O)CN3CCN(c4ccc(F)cc4)CC3)ccc12 (stereo unspecified)
→ 3	-7	6	-3	-0.1	13
46. COc1ccc(OC)c(NC(=O)c2sc3ncnc(N4CCN(c5ccccn5)CC4)c3c2C)c1
→ -1	-1	-3	-7	-0.6	-13
47. Nc1ncnc2c1C1(CCCCC1)Cc1ccccc1-2
→ 10	-25	5	-5	-0.2	4
48. CCc1ccccc1NS(=O)(=O)Cc1ccccc1
→ 0	-29	6	4	-0.4	-4
49. C=CCC(C#Cc1ccccc1)[N+](C)(C)CC=C (stereo unspecified)
→ 56	-21	-6	17	0.5	0
50. OCCCn1c(C2CCCN2c2nc(-c3ccc(F)cc3)cs2)nc2cc(Cl)c(Cl)cc21 (stereo unspecified)
→ -1	-8	·	-14	0.6	·
51. COCOc1ccc(-c2ncc(OCCN3CCCC3=O)nc2NC(=O)c2cc3ccccc3s2)cc1
→ -4	16	-3	-6	0.7	·
52. O=C(c1ccccc1)N(CCCl)C(=O)N(CCCl)C(=O)c1ccccc1
→ 7	-22	-4	3	0.0	·
53. Cc1cc(Cl)ccc1-c1nc(NCCN(C)C)nc2ccsc12
→ 13	-17	-4	-4	-0.3	·
54. CC1CCN(C(=O)CNC(=O)CNC(=O)Cc2ccccc2)CC1
→ 6	4	-2	3	0.2	13
55. COC(=O)C1=C(C)N(C)C(=O)NC1c1ccccc1 (stereo unspecified)
→ 21	0	-1	6	0.0	3
56. Cc1oc(-c2cccc(F)c2)nc1CN(Cc1ccccc1)C[C@@H]1CCC(=O)N1
→ -13	-7	-1	-3	-0.6	-2
57. CS(=O)(=O)N1N=C(c2ccco2)CC1c1cccc([N+](=O)[O-])c1 (stereo unspecified)
→ -13	-23	·	0	-0.6	6
58. Cc1cc(C)c(S(=O)(=O)Nc2ccccc2C(=O)N2CCCC2)c(C)c1
→ 2	-11	-17	12	0.1	-2
59. O=C(NCCCN1CCCC1=O)c1cc(-c2ccc3c(c2)OCO3)nc2ccccc12
→ 7	-5	-2	-13	-0.4	25
60. c1ccc(CCn2cnc3ccccc32)cc1
→ 26	-1	2	-5	-0.6	0

New compounds follow
Screens in order – TRPML1 inh	D2 potentiator	CtBP-E1A inh	Six1-Eya2 inh	TRPML1 ag	TRPV1 PAM
61. Cc1ccc(Cn2ncc3c(N4CCCC4)ncnc32)cc1
→ 27	-11	-2	-3	-0.3	-5
62. Cc1ccc(-n2c(C)cc(C(=O)NS(=O)(=O)c3ccc(C)cc3)c2C)cc1
→ 8	-1	-13	-17	-1.0	13
63. O=C(NC1CCCCC1)N1CCN(CCc2ccccc2)CC1
→ -1	-20	-4	-3	0.5	-2
64. CCOc1cc(C)c(C(C)C)cc1S(=O)(=O)N1CCOCC1
→ -11	-7	3	2	0.3	-10
65. O=C(CCc1nc(-c2ccccc2F)no1)Nc1ccc(Oc2ccccc2)cc1
→ 5	9	-1	-2	1.0	-4
66. CCN(CC)C(=O)C1CC(c2ccc(OC)cc2)=NO1 (stereo unspecified)
→ 2	-20	8	4	-0.5	5
67. CCn1c(Cc2ccccc2)nnc1SCC(=O)c1c(N)n(C2CC2)c(=O)[nH]c1=O
→ 25	-7	-8	-2	0.3	0
68. O=C(CCC1CCCC1)NCCS(=O)(=O)N1CCN(c2ccccc2F)CC1
→ 13	-2	12	-5	-1.1	-9
69. Cc1cccc(NC(=O)C2CCCN2C(=O)OCc2ccccc2)c1 (stereo unspecified)
→ -1	-8	4	1	0.3	2
70. CCOc1cc(/C=N/NC(=O)c2cc(-c3cccnc3)nc3ccccc23)ccc1O
→ -8	2	2	?	-0.7	8
71. NC(=S)N/N=C1\CC(c2ccc3c(c2)OCCCO3)Oc2ccc(F)cc21 (stereo unspecified)
→ 28	-5	-15	-29	2.6	9
72. CCCS(=O)(=O)c1c(S(=O)(=O)CCC)c2c(N)cccn2c1C(=O)c1ccc(F)cc1
→ 5	-4	-5	-10	1.7	2
73. O=C(O)C1CCCN1c1nc(-c2ccc(Cl)c(Cl)c2)cc(C(F)(F)F)n1 (stereo unspecified)
→ 11	-7	5	1	0.4	6
74. O=C(Cc1ccccc1[N+](=O)[O-])OCC(=O)c1ccccc1Br
→ 30	-1	-11	-2	1.4	·
75. Cc1ccc(CCC(=O)Nc2ccc(Cl)cc2Cl)o1
→ 24	-13	10	-13	1.7	·
76. CCN(C(=O)COc1cc(=O)n(CC)c2ccccc12)c1cc(Cl)ccc1OC
→ -4	4	0	-9	0.4	-10
77. CCOc1c2ccc(C(=O)NCc3ccc4c(c3)OCO4)cc2nn1CC
→ 7	-10	·	1	-0.1	7

Along the list, from the results shown.
Entries 32 to 42 in TRPV1 PAM: 14, 13, -6, 17, -7, 7, -7, 11, -4, ?, 15
Entries 32 to 42 in D2 potentiator: -31, -7, -5, 5, 8, -19, -3, -15, 7, -3, -15

Complete entries from above. Order of screens: TRPML1 inh | D2 potentiator | CtBP-E1A inh | Six1-Eya2 inh | TRPML1 ag | TRPV1 PAM
Cc1ccc(CCC(=O)Nc2ccc(Cl)cc2Cl)o1 in the list: 24 | -13 | 10 | -13 | 1.7 | ·
CCN(C(=O)COc1cc(=O)n(CC)c2ccccc12)c1cc(Cl)ccc1OC in the list: -4 | 4 | 0 | -9 | 0.4 | -10
